Autofluor counter – flagged as autofluorescent in microsphere protease counterscreen; compound autofluorescence counterscreen, microsphere flow cytometry; active compounds read high; fluorescence intensity (test concentration not listed); 360,000 compounds, 3.1% hits;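 active = at least 3 SD above the mean of all compounds, about 16000 in these data; inconclusive = too few beads counted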;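 also: 100 nL of 1 mM stock went into each well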
BJeLR viability – BJeLR cell viability loss | BJeLR (HRASV12) viability, CellTiter-Glo ATP luminescence, 48 h; reference of the scale not given here | 300,000 compounds, 0.17% hits | inhibition, % (test concentration not listed) | AID 1554;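 active = replicate mean above 50%; inconclusive = above 50% but judged a plate artefact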;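 also: 50 nL library stock added to about 25 µL; numbers are from one replicate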
Mtb hypoxia inh – inhibitors of hypoxia-regulated fluorescent reporter in Mycobacterium tuberculosis; fluorescence inhibition, % (no concentration beside the values); AID 1159583; 300,000 compounds, 0.1% hits; M. tuberculosis hypoxia-regulated fluorescent reporter, fluorescence;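 active = 35 to 45% if threefold the growth effect, above 45% if 1.5-fold the growth effect; inactive = the rest, general growth blockers included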;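 also: wells of about 50 µL received 100 nL stock; 0% = vehicle wells and 100% = reference inhibitor wells; whole bacteria with a GFP reporter of the hypoxia response; strong numbers were not always called active; many hits fall short of the cut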
RN4220 kill – S. aureus RN4220 growth inhibition; inhibition, % (no concentration beside the values); 330,000 compounds, 0.33% hits; OD600, 16 h; AID 1259311;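 active = z-score of -3 or lower and OD600 up to 0.18 on both plates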;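 also: plate controls were untreated cells for no effect and reference antibiotic for full effect; stock transfer was 100 nL into about 80 µL; one replicate is shown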
ugtP null kill – kills S. aureus RN4220 lacking UgtP; S. aureus RN4220 ugtP deletion, OD600 growth, 16 h; some inactives read as strong as hits; growth inhibition, % (no concentration beside the values); 330,000 compounds, 0.54% hits; AID 1259309;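 active = z-score under -3 and OD600 up to 0.15 on both plates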;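 also: plate controls were untreated wells for no effect and antibiotic for full effect; wells of about 80 µL received 100 nL stock; the first replicate is given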
PrP UTR inh – suppresses PrP 5' UTR mRNA reporter expression; cell-based PrP 5' UTR mRNA reporter, plate reader; 340,000 compounds, 0.35% hits; inhibition, % (test concentration not listed);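 active = every replicate at 50% or more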;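 also: 0 = median of the neutral control wells; tested in H4 reporter cells; numbers are from one replicate; inactives centre near -14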
Mtb hypoxia inh growth – recorded beside Mtb hypoxia inh, whose call it bears; growth inhibition, %; measured here: M. tuberculosis growth (absorbance);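 0% = vehicle and 100% = reference antibiotic; read after six days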
Numbers without * were called inactive; ? = inconclusive; . = not tested or not shown; & = joins results of further samples. An unsorted share of the library. About 3.9% of those tested had a hit in this group.

Start of the listing, in advance, three compounds:
SMILES	Autofluor counter	BJeLR viability	Mtb hypoxia inh	Mtb hypoxia inh growth	RN4220 kill	ugtP null kill	PrP UTR inh
CCOC(=O)N1CCC(Nc2c(NCCN3CCN(c4cccc(Cl)c4)CC3)c(=O)c2=O)CC1	4587	8	-7	1	0.4	-21	-19
COc1ccc([N+](=O)[O-])cc1/C=N/NC(=O)Cc1ccccc1	2450	-2	.	.	.	.	-20
COc1ccccc1CNC(=O)c1ccc(S(=O)(=O)N2CCCC2)cc1	24898*	6	2	5	7.7	10	-49

The listing (from the top)
SMILES	Autofluor counter	BJeLR viability	Mtb hypoxia inh	Mtb hypoxia inh growth	RN4220 kill	ugtP null kill	PrP UTR inh
CCOC(=O)N1CCC(Nc2c(NCCN3CCN(c4cccc(Cl)c4)CC3)c(=O)c2=O)CC1	4587	8	-7	1	0.4	-21	-19
COc1ccc([N+](=O)[O-])cc1/C=N/NC(=O)Cc1ccccc1	2450	-2	.	.	.	.	-20
COc1ccccc1CNC(=O)c1ccc(S(=O)(=O)N2CCCC2)cc1	24898*	6	2	5	7.7	10	-49
COc1ccc(C(=O)OCC(=O)c2cc(OC)ccc2OC)c(OC)c1	2846	1	.	.	0.0	-5	-6
COc1ccc(N(CC(=O)N2CCOCC2)S(C)(=O)=O)cc1	.	-2	11	0	7.7	12	-36
CC(=O)OCc1c(C(F)(F)F)nn(C)c1Sc1ccccc1	19824*	1	6	7	3.0	8	-22
CCCCCCCC(=O)Nc1ccc(C(=O)N/N=C/c2cccc([N+](=O)[O-])c2)cc1	4128	13	.	.	.	.	21
Cc1ccc(CSC2=Nc3sccc3C3=NC(=O)CN23)cc1	9588	4	12	6	0.4	0	-17
CCC(CC)C(=O)Nc1c2c(nn1-c1ccc(OC)cc1)CS(=O)(=O)C2	10524	2	2	9	1.3	9	-18
O=C(Nc1ccccc1)N1CC2CC(C1)c1cccc(=O)n1C2 (stereo unspecified)	2561	13	-7	8	1.5	8	-8
O=C(C1CCC(CNc2c(N3CCCCC3)c(=O)c2=O)CC1)N1CCCC1 (stereo unspecified)	5819	11	16	31	2.1	1	2
CCOc1ccccc1-n1c(SCC(=O)Nc2ccc(CC)cc2)nc2n[nH]c(C)c2c1=N	.	-2	.	.	-0.9	-5	.
CCc1nc(OCC(=O)c2ccccc2)c(C#N)c2c1COC(C)(C)C2	3076	-13	.	.	8.7	7	0
CCOC(=O)c1c(C)[nH]c(C)c1C(=O)CSc1nc(N)cc(=O)[nH]1	4099	8	4	6	5.1	4	-25
COc1ccc(C2N(C(=O)C(F)(F)F)C(C)CN2S(=O)(=O)c2ccc(C)cc2)cc1 (stereo unspecified)	3600	4	7	3	7.7	13	-25
Cc1cc(C)cc(N)c1	5102	.	9	4	6.1	2	-22
COc1ccccc1N1CCN(c2ccc(-c3ccccc3)nn2)CC1	5406	37	10	11	6.4	1	52
O=C(c1cc2sccc2n1Cc1ccccc1)N1CCCc2ccccc21	4717	-4	5	11	-2.7	-5	-14
COc1ccccc1CN(Cc1nc2ccccc2c(=O)[nH]1)C(=O)Nc1ccc(C)cc1	9082	-8	9	10	12	-8	-20
Cc1ccc(S(=O)(=O)N(C)C)cc1NC(=O)COC(=O)/C=C/c1cccs1	4872	-2	7	6	0.9	9	-22
CS/C(=N\S(=O)(=O)c1cccs1)NC(=O)CSc1nc2ccccc2s1	4333&2854	7	-7	-1	5.4&3.5	-7&-7	31&-28
COc1ccccc1N1CCN(S(=O)(=O)CCNC(=O)C23CC4CC(CC(C4)C2)C3)CC1	5394	0	-5	6	6.0	10	-18
Cc1ccc(C2=NN3C(=O)c4ccccc4C3C2)cc1 (stereo unspecified)	4213	1	6	8	16	13	-19
O=C(O)c1cc(O)ccc1NC(=O)C1CCCO1 (stereo unspecified)	3208	-2	.	.	.	.	-2
Cc1c(NC(=O)c2c(F)cccc2F)c(=O)n(-c2ccccc2)n1C	2712	1	.	.	-2.2	-1	-2
Next section:
SMILES	Autofluor counter	BJeLR viability	Mtb hypoxia inh	Mtb hypoxia inh growth	RN4220 kill	ugtP null kill	PrP UTR inh
Cc1cc(C)cc(NC(=O)COC(=O)COc2ccc(N(C)S(=O)(=O)c3cccs3)cc2)c1	3607	.	17	11	7.2	-1	-31
O=C(O)c1cc2ccc3cccc4ccc(c1)c2c34	3916	-4	-10	8	16	3	-29
CN1/C(=C/C=Nn2cnnc2)C(C)(C)c2ccccc21	.	.	7	-3	1.6	2	.
O=C(COC(=O)c1ccco1)NC1CCCC1	4106	-11	9	-5	2.5	-8	-17
Cc1cccc(N2CCN(CCNC(=O)c3cc4c(s3)CS(=O)(=O)C4)CC2)c1C	6011	-6	8	10	4.0	-3	-20
O=C(Nc1nncs1)c1cccc(S(=O)(=O)N2CCc3ccccc32)c1	3947	1	4	6	15	5	-23
CCn1nc(C)cc1C(=O)NC1CC(C)(C)Cc2c1cnn2-c1cccc(F)c1 (stereo unspecified)	4870	1	-7	3	1.9	3	-70
O=C(O)c1ccc[nH]c1=S	3984	2	7	-3	2.8	1	-1
Cc1[nH]c2ccccc2c1C(c1ccccn1)N1CCCC1 (stereo unspecified)	3642	-3	-12	-13	3.5	16	-16
CCCC(=O)Nc1ccc(Cc2ccc(NC(=O)CCC)c(C(=O)O)c2)cc1C(=O)O	2073	7	1	4	-0.4	-2	-3
COc1ccc(S(=O)(=O)Nc2ccc(N3CCOCC3)cc2)cc1Br	2876	0	.	.	0.5	5	-24
CN1CCC(=NNC(=O)CN(c2ccccc2)S(=O)(=O)c2ccccc2)CC1	5145	-12	-5	0	2.1	5	-17
O=C(CN1C(=O)CSc2ccc(S(=O)(=O)N3CCOCC3)cc21)NCc1cccnc1	3510	0	11	9	2.8	2	-21
O=C1COc2ccc(C(=O)COC(=O)CNC(=O)C3CCCCC3)cc2N1	3713	-15	10	-3	1.1	15	-14
CN1C(=O)C2(OCC(COc3ccc(Cl)cc3)O2)c2ccccc21 (stereo unspecified)	8652	2	4	2	4.4	-2	-14
O=S(=O)(NCc1ccco1)N1CCCCCC1	3259	4	5	6	4.7	-4	-11
O=C(CCC(=O)c1ccc(Cl)cc1)OCn1nnc2ccccc2c1=O	5673	.	10	3	3.2	2	-1
CC(=O)NC(CC(=O)OCC(=O)c1c(N)n(CC(C)C)c(=O)n(C)c1=O)c1ccccc1 (stereo unspecified)	5318	8	10	12	3.3	8	-14
Cc1ccc(C(=O)NC2CC3CCC(C2)N3)cc1 (stereo unspecified)	4456	7	10	14	5.0	5	-14
Cc1cc(NC(c2cccnc2)c2ccc3cccnc3c2O)no1 (stereo unspecified)	2395	4	13	5	11	-8	26
O=C(CCCCCN1C(=O)c2ccccc2C1=O)Nc1ccc2c(c1)OCCO2	3608	8	5	8	-2.4	1	-12
COc1cc(NC(=O)CN2CCCCC2C)c(C)cc1[N+](=O)[O-] (stereo unspecified)	2053	-18	-5	6	-5.0	-5	-8
CC(C)(C)c1csc(Sc2ccc([N+](=O)[O-])cn2)n1	.	-6	5	-1	1.6	0	-14
CS(=O)(=O)N1CCC(Oc2ccccc2C(=O)N2CCCCC2CO)CC1 (stereo unspecified)	4563	7	3	4	-0.2	12	-24
COc1ccc2c(c1)c(CCN)c(C)n2Cc1ccccc1	3871	11	4	2	2.1	-1	-13
Further structures follow.
SMILES	Autofluor counter	BJeLR viability	Mtb hypoxia inh	Mtb hypoxia inh growth	RN4220 kill	ugtP null kill	PrP UTR inh
Cc1nn(-c2ccccc2)c2sc(C(=O)N3CCCCC3)cc12	5079	-14	.	.	2.0	0	-31
Cc1ccccc1OCC(=O)Nc1nnc(S(=O)(=O)N2CCCC2)s1	5230	0	12	2	1.3	9	-21
S=C(NC1CCCCC1)NC1CC2CCC(C1)N2Cc1ccccc1 (stereo unspecified)	5086	-1	8	-3	-1.8	0	-6
Cc1nn(C)c(Cl)c1C(=O)NCC(=O)O	4333	-2	-14	-2	1.3	1	-12
CCC(CO)Oc1cc(NCc2ccccc2Cl)c2ncn(C(C)C)c2c1 (stereo unspecified)	3089	.	-2	-2	11	8	-19
Cc1ccc2[nH]c(=O)c(CN(C)C(=O)c3ccccn3)cc2c1	2627	2	.	.	5.1	0	2
Cc1ccc(N2CC(C(=O)Nc3cc(C(F)(F)F)ccc3N3CCCC3)CC2=O)cc1 (stereo unspecified)	.	-13	-2	-2	-1.3	-5	-8
O=C(CCNS(=O)(=O)c1cccc2nsnc12)NCc1ccco1	4107	2	11	10	6.0	-4	-26
Nn1c(SCC(=O)NC2CCCCC2)nnc1-c1ccccc1	4547	8	.	.	-0.5	2	6
Cn1cc([N+](=O)[O-])c(C(=O)Nc2ccc3nc(-c4ccccc4)[nH]c3c2)n1	9954	-2	0	1	3.8	7	-3
Cc1ccc(-c2c3c(=O)n(C)c(=O)n(C)c3cn2Cc2cccnc2)cc1	3518	-3	16	10	-13	-1	0
O=C(O)c1ccc(/C=N/Nc2ccc(F)cc2F)cc1	4311	31	.	.	.	.	-37
O=C(NCC(=O)N1CCC(Cc2ccccc2)CC1)c1ccc(Cl)cc1	?	2	0	5	-2.8	2	-7
CCCn1c(N)c(C(=O)CSc2nc3ncc(Cl)cc3[nH]2)c(=O)n(C)c1=O	.	.	8	-3	2.3	-3	-4
CCCCn1c(N)c(N(CC)C(=O)c2cccc(OC)c2)c(=O)[nH]c1=O	4347	-5	8	9	8.7	3	-17
COc1ccc(C/C(O)=C(\C#N)c2nc3ccccc3s2)cc1	8785	4	.	.	.	.	-13
Cc1cccc(OCC(=O)Nc2ccc(S(=O)(=O)N3CCCC3)cc2)c1	3740	-1	1	0	2.0	4	4
O=C(Cc1ccccc1)ON=C1CCCc2ccccc21	.	.	6	-1	2.4	8	.
CCOc1ccc(S(=O)(=O)NCCC(=O)NCCOc2ccccc2OC)cc1	6114	-5	1	14	1.9	1	0
CCOC(=O)c1nc(-c2ccc(OC)c(OC)c2)no1	3579	2	-1	3	9.4	3	-5
CC(NS(=O)(=O)c1ccc2c(c1)OCCCO2)C(=O)O (stereo unspecified)	2095	-3	15	4	4.6	0	-24
O=C(Nc1ccc(S(=O)(=O)N2CCOCC2)cc1)c1ccco1	4574	-14	3	3	1.6	1	-22
Cn1cccc1CC(=O)N/N=C\c1c2ccccc2cc2ccccc12	6901	-7	.	.	.	.	-30
O=C(NN=C1CCCCCCCCCCC1)c1cccnc1	4282	9	-11	-3	1.8	2	-12
O=C(c1cc(-c2cccnc2)nc2ccccc12)N1CCCc2ccccc21	2071	-6	1	-3	4.6	1	-15
(cont.)
SMILES	Autofluor counter	BJeLR viability	Mtb hypoxia inh	Mtb hypoxia inh growth	RN4220 kill	ugtP null kill	PrP UTR inh
O=C(NCc1ccncc1)Nc1ccc2c(c1)OCO2	2196	5	19	4	5.7	5	-16
CC(=O)C1=C(O)C(=O)N(c2nccs2)C1c1ccccc1 (stereo unspecified)	2542	1	.	.	-2.2	4	-33
CC(=O)Nc1ccc(S(=O)(=O)N(CC(=O)Nc2cc(C)on2)Cc2ccc(F)cc2)cc1	.	-20	2	4	2.3	2	-7
Cc1ccc(NC(=S)Nc2ccccn2)c(C)c1	6282	1	7	4	4.0	16	-74
COc1ccc(CCNC(=O)Cn2cnc3scc(-c4ccccc4)c3c2=O)cc1OC	2200	0	6	-3	-7.1	-7	-10
COc1ccc2[nH]c(=O)c3c(c2c1)OC(C)(C)C=C3	9351	-7	-70	2	5.1	-16	13
O=C1c2cccc3cccc(c23)C(=O)N1CCCCCc1n[nH]c(=S)o1	5066	2	15	-2	41	0	-5
CC(NC(=O)C(=O)Nc1nccs1)c1ccccc1 (stereo unspecified)	5672	-6	-8	1	4.5	0	-22
O=C(COC(=O)C1=COCCO1)Nc1ccccc1Oc1ccccc1	6061	4	1	-8	3.4	-3	-19
COc1ccc(-c2nnc(NC(=O)CS(=O)(=O)c3ccc(F)cc3)o2)c(OC)c1	6192	5	-7	6	0.1	23	-4
COc1ccccc1/C=C(\NC(=O)c1cccc(C)c1)C(=O)Nc1ccccn1	3336	-1	13	9	4.7	15	-17
C/C(=N\OC(=O)NC1CCCCC1)c1sc(-c2ccccc2)nc1C	9272	8	.	.	.	.	-22

High-throughput results deposited in PubChem by several laboratories.
